# Assay outcomes from PubChem BioAssay.
# TRPML1 ag – agonists of human TRPML1 channel | Q9GZU1 | 0.12% of 410,000 active | activation, % (concentration not given with the values) | AID 624414 | TRPML1-expressing cells, Ca2+ dye fluorescence, FDSS; host cell line not named in the record; reference of the full effect not given here; in the data active = activation above about 50%; inconclusive = about 30% to 50%; inactive = below about 30%; also: 0% is about no effect; the text of the record puts the active cut at 80%
# Target sequence (Q9GZU1 whole entry, looked up): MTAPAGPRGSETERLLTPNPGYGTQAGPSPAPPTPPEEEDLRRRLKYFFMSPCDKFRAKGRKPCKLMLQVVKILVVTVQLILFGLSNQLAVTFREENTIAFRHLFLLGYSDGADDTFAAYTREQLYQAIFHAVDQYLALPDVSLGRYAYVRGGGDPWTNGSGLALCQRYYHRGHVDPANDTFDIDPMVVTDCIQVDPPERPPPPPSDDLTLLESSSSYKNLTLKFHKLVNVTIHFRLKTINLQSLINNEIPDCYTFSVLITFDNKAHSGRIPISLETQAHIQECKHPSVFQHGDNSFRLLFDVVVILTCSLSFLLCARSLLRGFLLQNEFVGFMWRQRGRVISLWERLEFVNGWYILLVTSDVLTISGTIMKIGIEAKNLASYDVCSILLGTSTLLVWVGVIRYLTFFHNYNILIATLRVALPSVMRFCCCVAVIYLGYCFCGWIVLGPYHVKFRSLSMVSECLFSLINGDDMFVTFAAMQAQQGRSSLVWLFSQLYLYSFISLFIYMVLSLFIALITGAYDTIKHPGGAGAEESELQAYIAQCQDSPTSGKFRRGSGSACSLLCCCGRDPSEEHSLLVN
#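 In this qHTS format, compounds were pin-transferred onto Ca8-dye-loaded TRPML1-DL cells induced with Tet overnight, and intracellular Ca2+ fluorescence was recorded kinetically for 110 s after a 10 s baseline. A subsequent 4uM final 54-4 (EC80) addition followed by a second 110 s read served as the antagonist phase.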
# TRPV1 potentiator – human TRPV1 potentiation; Q8NER1; TRPV1-expressing cells, Fluo-8 calcium influx, capsaicin EC20 potentiation; host cell line not named in the record; control for the full effect not named in the record; potentiation, % at 8.33 µM; 0.02% of 320,000 active; active means potentiation above 80%; inconclusive means 30% to 80%; inactive means below 30%; also: 0% is about no effect
#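 Fluo-8 calcium influx in TRPV1-expressing cells, kinetic read (ex 480/em 520 nm). Compound added and read 3 min for agonist activity, followed by capsaicin at EC20 final and 2 min further read for enhancement.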
# Sfp PPTase inh – blocks B. subtilis Sfp PPTase activity; Biochemical Sfp PPTase activity, qHTS; Q9F4F7; Potency, µM, without a hit: max response, negative = inhibition, hits mostly inhibitors; 3.5% of 310,000 active; active = well fitted inhibition curve with a large enough effect; inconclusive = small, poorly fitted or top-dose-only effect, or another doubt; inactive = no such curve, though single readings can be large or run the other way;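 also: the enzyme is Sfp with the accession as filed and its product quenches rhodamine fluorescence; potency is read from the fitted curve at half-maximal effect; 0% = enzyme reaction without inhibitor and -100% = no enzyme wells; top concentration of the series not given in the record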
#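 Fluorescence-quenching assay: 15 nM Sfp-PPTase preincubated 15 min at room temperature with compound, then 5 uM rhodamine-CoA and 12.5 uM BHQ-2-labelled YbbR peptide added. Fluorescence (ex 525/em 598 nm) read at start and after 30 min; difference gives rate.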
# Menin-MLL FL inh – displaces fluorescein MLL peptide from human menin; Fluorescence polarization, fluorescein-MLL peptide displacement from menin; FP activity change, % at 61.4 µM; 290,000 tested, under 10 active; inconclusive = falling polarisation curve, or a change in total fluorescence; inactive = total fluorescence flat and polarisation flat or rising; no compound was filed as active; the % refers to the polarisation; negative = inhibition;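 also: % of control where 0% means no effect; inhibitors lower the polarisation; unlabelled MLL peptide was the positive control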
# TRPML1 blocker – inhibitors of human TRPML1 channel; Q9GZU1; TRPML1-inducible cells, Ca2+ dye fluorescence, FDSS; stronger effect = lower value; inhibition of EC80 agonist-evoked calcium signal; activity change, negative = inhibition, % (no concentration beside the values); 0.02% of 390,000 active; AID 624415; in the data active means activity change below about -50%; inconclusive means about -30% to -50%; inactive means above about -30%;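 also: stimulus is agonist 54-4 at its EC80 concentration; % is scaled to controls: 0 for no effect and ±100 for the full control effect; compound concentration not given in the record; the text of the record puts the active cut at -80%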
#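 Calcium fluorescence in TRPML1-DL cells induced overnight with Tet: a 110 s read after compound pin addition, then a 110 s antagonist read after challenge with 54-4 at 4 uM final (EC80).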
# ClpP mod – qHTS Assay for Activators of ClpP | purified B. subtilis ClpP, FRET peptide cleavage, 20 min | Potency, µM (top dose mostly 57.5 µM), without a hit: at the top dose activity change, negative = active | 1.9% of 340,000 active | AID 651965, 2013; active = well fitted falling curve with a large enough effect; inconclusive = small, poorly fitted or top-dose-only effect; inactive = no such curve, though single readings can be large or run the other way; also: potency is read from the fitted curve at half-maximal effect; the source files actives as falling curves though it sought activators and does not explain the sign; nearly all actives have a fitted effect of over 65% in size; many hits overshoot -100%
# Target sequence (P80244 whole entry, looked up): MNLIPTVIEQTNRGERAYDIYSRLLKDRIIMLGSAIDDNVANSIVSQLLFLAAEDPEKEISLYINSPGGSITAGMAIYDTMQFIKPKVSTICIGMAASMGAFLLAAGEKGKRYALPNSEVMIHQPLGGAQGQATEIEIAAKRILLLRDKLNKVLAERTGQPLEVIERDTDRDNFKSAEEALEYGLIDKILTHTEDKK
#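 Buffer: 100 mM Tris/HCl pH8, 100 mM KCl, 0.05% low protease BSA, 2.5% glycerol, 0.01% Tween-20. ClpP 10 microg/mL final; 20 min RT; delta FRET normalized to ADEP and DMSO controls.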
# PINK1 modulator – changes PINK1 expression. AID 624263. Potency, µM (top dose mostly 76.6 µM), inactives show at the highest dose activation (PINK1 increase), hits mostly activators. PINK1 immunofluorescence, high-content cytometry, 24 h. 0.2% of 410,000 active; active = well fitted activation curve with a large enough effect; inconclusive = small, poorly fitted or top-dose-only effect; inactive = flat fitted curve, though single readings scatter; cell line not stated here;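 also: potency is read from the fitted curve at half-maximal effect; % of control where 0% means no effect; nearly all actives have a fitted effect of over 65% in size; a mitochondrial uncoupler was the plate control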
#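 Decision-based qHTS: stable cells, 24 h exposure to five compound concentrations, CCCP as control. Fixed cells stained for PINK1 plus nuclear, mitochondrial and cell markers, cytometer read.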
# The depositor's hits bear a star; u = inconclusive; x = not tested or not shown; [ ] = dose if it differs, or a comment. An excerpt, so the mix of outcomes need not match the whole.
no. | SMILES | TRPML1 ag | TRPV1 potentiator | Sfp PPTase inh | Menin-MLL FL inh
1 | Cc1cccn2c(=O)c3c(nc12)N1CCc2ccccc2C1C1(C3)C(=O)NC(=O)N(C)C1=O (stereo not drawn) | -0.5 | -7 | u | 2.5
2 | COc1ccc(OC)c(NC2=NCCS2)c1 | -0.1 | 12 | 16% | -1.8
3 | Cc1c(N=Nc2c(O)n(-c3ccc(Br)cc3)c(=O)[nH]c2=O)c(=O)n(-c2ccccc2)n1C | 0.6 | x | -28% | 26
4 | COc1ccc(CC(=O)N2CCN(C)CC2)cc1 | -0.5 | -4 | -6% | 3.9
5 | COc1ccc(CCNCc2ccccn2)cc1OC | -0.3 | 6 | 3% | 3.6
6 | CC(=NCCCn1ccnc1)c1c(O)n(C)c(=O)n(C)c1=O | -0.2 | 7 | 7% | 1.2
7 | Cc1ccc(/C=C2/C(=O)NC(=O)N(Cc3ccc(F)cc3)C2=O)o1 | x | 18 | 35µM* | u
8 | CN(C(=O)Cc1ccc2c(c1)OCO2)C1CCCN(Cc2ccccc2F)C1 (stereo not drawn) | 2.0 | x | x | x
9 | Fc1ccc(CNCCc2c[nH]c3ccccc23)cc1 | 0.3 | -2 | 2% | 2.3
10 | O=C(CCN1CC1)OCCOC(=O)CCN1CC1 | 0.9 | x | x | x
11 | COc1ccc(Cn2c(O)c(C=NCCCn3ccnc3)c(=O)[nH]c2=O)cc1 | -0.4 | -9 | 11% | 2.9
12 | COc1cc(/C=C2\C(=O)NC(=O)N(c3ccccc3)C2=O)cc(OC)c1O | 1.3 | -1 | 22µM* | 18

no. | TRPML1 blocker | ClpP mod | PINK1 modulator
1 | -17 | 0.3% | -1.2%[38.3 µM]
2 | 2 | x | 1.0%
3 | 0 | x | -1.2%
4 | 1 | -3.7% | -3.9%[38.3 µM]
5 | 13 | 1.1% | 13%[38.3 µM]
6 | 1 | 0.3% | u
7 | x | x | x
8 | -7 | -1.6% | -2.0%
9 | 2 | x | 16%
10 | 0 | -0.5% | -0.8%
11 | 3 | 1.2% | 12%
12 | -5 | -4.5% | -4.5%[38.3 µM]

# Part of the list above, with two lines to a compound.
# The line under a structure holds: TRPML1 ag, TRPV1 potentiator, Sfp PPTase inh, Menin-MLL FL inh, TRPML1 blocker, ClpP mod, PINK1 modulator
3. Cc1c(N=Nc2c(O)n(-c3ccc(Br)cc3)c(=O)[nH]c2=O)c(=O)n(-c2ccccc2)n1C
    0.6, x, -28%, 26, 0, x, -1.2%
4. COc1ccc(CC(=O)N2CCN(C)CC2)cc1
    -0.5, -4, -6%, 3.9, 1, -3.7%, -3.9%[38.3 µM]
5. COc1ccc(CCNCc2ccccn2)cc1OC
    -0.3, 6, 3%, 3.6, 13, 1.1%, 13%[38.3 µM]
6. CC(=NCCCn1ccnc1)c1c(O)n(C)c(=O)n(C)c1=O
    -0.2, 7, 7%, 1.2, 1, 0.3%, u
7. Cc1ccc(/C=C2/C(=O)NC(=O)N(Cc3ccc(F)cc3)C2=O)o1
    x, 18, 35µM*, u, x, x, x
8. CN(C(=O)Cc1ccc2c(c1)OCO2)C1CCCN(Cc2ccccc2F)C1 (stereo not drawn)
    2.0, x, x, x, -7, -1.6%, -2.0%
9. Fc1ccc(CNCCc2c[nH]c3ccccc23)cc1
    0.3, -2, 2%, 2.3, 2, x, 16%
10. O=C(CCN1CC1)OCCOC(=O)CCN1CC1
    0.9, x, x, x, 0, -0.5%, -0.8%
11. COc1ccc(Cn2c(O)c(C=NCCCn3ccnc3)c(=O)[nH]c2=O)cc1
    -0.4, -9, 11%, 2.9, 3, 1.2%, 12%
12. COc1cc(/C=C2\C(=O)NC(=O)N(c3ccccc3)C2=O)cc(OC)c1O
    1.3, -1, 22µM*, 18, -5, -4.5%, -4.5%[38.3 µM]

# Given with bars between the fields: 2 of the compounds above
cpd | molecule | TRPML1 ag | TRPV1 potentiator | Sfp PPTase inh | Menin-MLL FL inh | TRPML1 blocker | ClpP mod | PINK1 modulator
5 | COc1ccc(CCNCc2ccccn2)cc1OC | -0.3 | 6 | 3% | 3.6 | 13 | 1.1% | 13%[38.3 µM]
8 | CN(C(=O)Cc1ccc2c(c1)OCO2)C1CCCN(Cc2ccccc2F)C1 (stereo not drawn) | 2.0 | x | x | x | -7 | -1.6% | -2.0%

# Next part:
no. | SMILES | TRPML1 ag | TRPV1 potentiator | Sfp PPTase inh | Menin-MLL FL inh
13 | CCn1ccnc1CN1CCCC(C(=O)c2cccc(C(F)(F)F)c2)C1 (stereo not drawn) | -0.7 | 8 | 22% | -1.3
14 | CC(=NCCCN1CCOCC1)c1c(O)n(-c2ccccc2C)c(=O)[nH]c1=O | -0.6 | -3 | 13% | 0.3
15 | Cc1cccc(N2C(=O)/C(=C/N3CCN(C(=O)c4ccco4)CC3)C(=O)NC2=S)c1 | -1.6 | 1 | u | 12
16 | CCOC(=O)[C@@H]1[C@H]2COc3ccc(Br)cc3[C@@H]2N2C(=O)N(c3cccc(C)c3)C(=O)[C@]12C | 0.9 | 17 | 4% | 1.0
17 | CC(=O)N1CCN(CCN=Cc2c(O)n(-c3ccc(C)cc3)c(=S)[nH]c2=O)CC1 | 0.0 | 5 | -3% | 1.6
18 | COc1cccc(-c2nn3c(=O)cc(CN4CCN(C(=O)COc5ccccc5C)CC4)nc3s2)c1 | 0.3 | x | x | x
19 | CCC(=O)OC1CCC2C3CCC4CC(=O)C=CC4(C)C3CCC12C (stereo not drawn) | 2.1 | x | x | x
20 | O=C1/C(=C\c2cc3c(cc2Br)OCO3)N2CCC1CC2 | 1.8 | u | u | u
21 | O=P1(Oc2ccccc2)CC=CC(COCc2ccccc2)O1 (stereo not drawn) | 0.5 | x | 12% | 1.0
22 | O=C(Cn1nc(-c2ccccc2)ccc1=O)N1CCC2(CC1)OCCO2 | -0.3 | 13 | u | 3.2
23 | CCOc1ccc(CNCCc2ccc3c(c2)OCO3)cc1 | -1.0 | -15 | 10% | -0.6
24 | O=C(C1CC(c2ccccc2O)=NO1)N1CCC2(CC1)OCCO2 (stereo not drawn) | -0.7 | -1 | 3% | 4.3

no. | TRPML1 blocker | ClpP mod | PINK1 modulator
13 | -8 | x | 4.1%
14 | 5 | 1.1% | 6.1%[38.3 µM]
15 | -1 | 16µM* | -1.5%
16 | -3 | -5.0% | -0.5%
17 | -9 | x | 0.6%
18 | 15 | -2.5% | 2.9%
19 | 62 | x | 0.2%
20 | -5 | -0.5% | 2.2%
21 | -11 | x | x
22 | -3 | x | -0.6%
23 | -3 | 0.3% | -1.4%
24 | 2 | 0.7% | -2.3%[38.3 µM]

# (more compounds)
no. | SMILES | TRPML1 ag | TRPV1 potentiator | Sfp PPTase inh | Menin-MLL FL inh
25 | Cc1cc(OC(=O)c2ccco2)c2c3c(c(=O)oc2c1)CCCC3 | 2.3 | -2 | -10% | 4.1
26 | CC(=NCCCn1ccnc1)c1c(O)n(C2CCCCC2)c(=O)[nH]c1=O | 0.5 | -12 | 4% | 3.8
27 | O=C(c1ccc2c(c1)OCO2)C1CCCN(Cc2ccccn2)C1 (stereo not drawn) | -0.8 | 11 | 1% | -1.9
28 | C[C@H]1O[C@H](O[C@H]2[C@H](O)[C@@H](O)[C@@H](O)[C@H](O)[C@@H]2O)[C@@H](N)C[C@@H]1NC(=N)C(=O)O | x | x | u | -12
29 | Cc1ccc(OCCOc2cccc(C=C3C(=O)NC(=O)NC3=O)c2)cc1 | -0.2 | -15 | 63µM* | u
30 | O=S(=O)(c1cc(Cl)cc(Cl)c1)N1Cc2cc(-c3ccccc3)ccc2-n2nncc2C1 | -0.5 | x | x | x
31 | C=CC[N+]1(C)CC[C@]23c4c5ccc(O)c4O[C@H]2C(=O)CC[C@@]3(O)[C@H]1C5 (stereo partly drawn) | 0.5 | -3 | x | x
32 | O=C1NC(=O)C(=Cc2ccc(N3CCOCC3)cc2)C(=O)N1 | 1.4 | 18 | -8% | -3.0
33 | COC(=O)C1=C(c2ccc(F)cc2OCc2ccccc2)C[C@@H]2CC[C@H]1N2C(=O)NC1Cc2ccccc2C1 | 2.3 | 1 | x | x
34 | O=C(O)COc1ccccc1 | -0.3 | 21 | -3% | 1.4
35 | CCOCCSc1nc2c(c(-c3cccs3)c1C#N)CC/C2=C/c1cccs1 | -0.1 | 6 | 35µM* | -1.7
36 | O=C(Cn1ncn2c(cc3cc(F)ccc32)c1=O)N1CCC2(CC1)OCCO2 | 0.7 | 1 | -3% | x

no. | TRPML1 blocker | ClpP mod | PINK1 modulator
25 | -15 | 22µM* | -4.3%
26 | 18 | -3.9% | -1.6%
27 | 5 | x | -0.4%
28 | x | x | 0.3%
29 | -3 | -2.1% | 3.8%
30 | x | -3.4% | -0.3%
31 | -8 | 0.3% | 0.8%
32 | 18 | x | -1.1%
33 | -10 | -4.6% | 0.4%
34 | -9 | 0.8% | 0.7%
35 | 16 | -0.6% | 11%
36 | -1 | u | -1.2%
